# Source: PubChem BioAssay
# HSD17B inh = inhibitors of human HSD17B10 dehydrogenase | Q99714 | hit rate 7.6% among 75,000 | Potency, µM (series often up to 57.1 µM), for the others: at the top dose activity change, negative = inhibition, hits mostly inhibitors | recombinant HSD17B10, NADH fluorescence kinetic; many of its hits are not listed in these tables; active = well fitted inhibition curve with a large enough effect; inconclusive = small, poorly fitted or top-dose-only effect; inactive = no such curve, though single readings can be large or run the other way;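 also: the protocol describes HADH2 (HSD17B10) and not the HSD17B4 of the title; nearly all actives have a fitted effect of over 70% in size; most hits overshoot -100% by far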
#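 Activity followed as NADH fluorescence increase (ex 360, em 450 nm) every 30 seconds for 4 min, using final 90 uM beta-hydroxybutyryl CoA and 1 mM NAD+. Recombinant His-tagged enzyme, 20 nM, pH 9.0 Tris buffer, 15 min compound preincubation.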
# * hit, by the source's call; ? = inconclusive; & = joins results of further samples; [ ] = remark or other dose. % is scaled to controls: 0 for no effect and ±100 for the full control effect; potency is read from the fitted curve at half-maximal effect.
canonical_smiles,HSD17B inh
CCOC(=O)c1c(CN(C)C)n(C)c2ccc(OC(C)=O)cc12,17%
COc1ccc(NC(=O)c2cccnc2)c(OC)c1,4%
Cc1ccccc1NC(=O)c1ocnc1C,8%
Cc1cc(C)nc(NC(=O)CCCC(=O)O)c1,5%
O=C(O)C1CCCN1C(=O)c1cncc(Br)c1 (stereo unspecified),1%
O=C(CN(Cc1ccco1)C(=O)CNS(=O)(=O)c1ccc(Cl)cc1)NCc1ccc(F)cc1,-1%
O=C(O)CCCC(=O)Nc1cccc2cccnc12,-9%
COC1=C(OC)C(=O)c2ccccc2C1=O,16%
c1cncc(Nc2nc(-c3cccs3)cs2)c1,12%
O=c1c2ccccc2oc2nc(-c3ccco3)n(CCc3ccccc3)c(=O)c12,-4%
CC(=O)NC(=O)NC1OC(=O)C(Cl)=C1Cl (stereo unspecified),-9%
Cc1cc(C(=O)NCCN2CCN(c3cccc(Cl)c3)CC2)n(-c2ccccc2)n1,1%
COc1cc(OC)nc(NC(=O)CSc2nnc(-c3ccccc3)n2C2CCCCC2)n1,3%
CCCCc1c(O)nc(SCC(=O)Nc2ccc3c(c2)CCC3)[nH]c1=O,3%
COc1ccc(CCNC(=O)COC(=O)c2cnc(C)cn2)cc1OC,13%
CCOc1cc(C2C3=C(CCCC3=O)NC3=C2C(=O)CCC3)cc(Cl)c1O,1%
O=C(CCc1ccc(S(=O)(=O)N2CCCCC2)cc1)c1nnc(-c2ccccc2)o1,-15%
COC(=O)C(Cc1ccccc1)NC(=O)C(N)CC(=O)O (stereo unspecified),8%
CCc1ccccc1NC(=O)c1ccoc1C,-3%
COC(=O)[C@@]1(Cc2ccc(F)cc2)[C@H]2c3cc(C(=O)N4CCCC4)n(Cc4cc(C)n(C)n4)c3C[C@H]2CN1C(=O)c1ccccc1,4%
COc1ccc(C2C(C(=O)NCC3CCCO3)c3cc(OC)c(OC)cc3C(=O)N2C)cc1OC (stereo unspecified),11%
Cc1ccc(C)c(N2CCN(C(=O)CCS(=O)(=O)c3cccc4nonc34)CC2)c1,-22%
CC(C(=O)O)c1ccc2c(c1)[nH]c1ccc(Cl)cc12 (stereo unspecified),2%
CC(=O)Nc1cccc(NC(=O)C2CCCN2C(=O)Nc2cccc(C)c2)c1 (stereo unspecified),-7%
COc1ccc(NC(=O)C2CCCN2S(=O)(=O)c2ccc3c(c2)CCC(=O)N3)c(OC)c1 (stereo unspecified),1%
O=C(Nc1ccccc1)N1CCn2c1nc1ccccc12,-3%
Cn1c(=O)c2cnc(N3CCOCC3)nc2n(C)c1=O,-2%
CC1=C(C(=O)OCC2CCCO2)C(c2cccc(O)c2)NC(=O)N1 (stereo unspecified),-8%
COC(=O)COc1cccc(NC(=O)c2cccs2)c1,10%
Cc1cc(N2CCN(S(=O)(=O)c3ccccc3)CC2)c2ccccc2n1,?
Cc1cccc(/C=C\c2ccccc2)n1,-27%
CCC(=O)N/C(=N/c1nc(C)cc(C)n1)Nc1cccc(OC)c1,-3%
CC(C)C[C@H](NC(=O)[C@@H](O)[C@@H](N)Cc1ccccc1)C(=O)O,-8%&3%
Cc1ccc(C2c3c(oc4ccccc4c3=O)C(=O)N2c2nnc(C)s2)o1 (stereo unspecified),3%
CCn1nnc(NC(=O)c2ccccc2Br)n1,-2%
CC(=O)OCCC(C)C,6%
O=c1c2cccnc2[nH]c(=S)n1CCC1=CCCCC1,2%
CC1=C(C(N)=O)C(c2ccccn2)n2nc(-c3ccccc3Cl)nc2N1 (stereo unspecified),-1%
Cc1cccc(C(C)C)c1-n1nnnc1-c1ccccc1,-4%
N#CCCN1CCN(S(=O)(=O)c2ccc(S(=O)(=O)NC3CCCCC3)cc2)CC1,-2%
C=CCn1c(-c2cc(OC)c(OC)c(OC)c2)n[nH]c1=S,25µM*
CC(=O)c1c(N2CCN(c3cccc(Cl)c3)CC2)nc(=S)n(-c2ccccc2)c1C,-8%
COCCn1c(C)cc(C(=O)CSc2nnc(-c3cccnc3)n2-c2ccccc2F)c1C,-12%
Cc1ccc2c(c1)N(CC(=O)O)C(=O)CO2,11%
NS(=O)(=O)c1ccc(N=Nc2nc3[nH]cnc(=S)c3[nH]2)cc1,3.2µM*
COc1cc(NC(=O)CSc2nnnn2-c2ccccc2)cc(OC)c1OC,-5%
O=C(O)c1ccc(OC2CSC2)cc1,-14%
Cc1ccc(/C(O)=C2\C(=O)C(=O)N(c3cc(C)on3)C2c2cccc(Cl)c2)cc1 (stereo unspecified),2%
N#CC1=C2SCN(Cc3ccco3)CN2C(=O)CC1c1cccc2ccccc12 (stereo unspecified),25µM*
COc1ccc(CCNC(=O)C2CCN(Cc3nc(-c4ccc(Cl)cc4)oc3C)CC2)cc1OC,15%

# 2 compounds picked at random from the list so far, as already listed:
canonical_smiles,HSD17B inh
COC(=O)C(Cc1ccccc1)NC(=O)C(N)CC(=O)O (stereo unspecified),8%
c1cncc(Nc2nc(-c3cccs3)cs2)c1,12%

# Returning to the listing; the 7 compounds before the break are reprinted first.
canonical_smiles,HSD17B inh
Cc1ccc2c(c1)N(CC(=O)O)C(=O)CO2,11%
NS(=O)(=O)c1ccc(N=Nc2nc3[nH]cnc(=S)c3[nH]2)cc1,3.2µM*
COc1cc(NC(=O)CSc2nnnn2-c2ccccc2)cc(OC)c1OC,-5%
O=C(O)c1ccc(OC2CSC2)cc1,-14%
Cc1ccc(/C(O)=C2\C(=O)C(=O)N(c3cc(C)on3)C2c2cccc(Cl)c2)cc1 (stereo unspecified),2%
N#CC1=C2SCN(Cc3ccco3)CN2C(=O)CC1c1cccc2ccccc12 (stereo unspecified),25µM*
COc1ccc(CCNC(=O)C2CCN(Cc3nc(-c4ccc(Cl)cc4)oc3C)CC2)cc1OC,15%
O=C(Nc1nc(-c2ccccc2)cs1)C1CCCCN1S(=O)(=O)c1ccccc1 (stereo unspecified),-15%
Nc1ncnc2c1ncn2[C@@H]1O[C@H](CO)[C@@H](O)[C@H]1O,1%
CC(=O)OC1CCC2(C)C(=CCC3C2CCC2(C)C3C[C@@H]3O[C@]32C(C)=O)C1 (stereo partly specified),-3%
O=C(CC1NCCNC1=O)OCc1ccccc1 (stereo unspecified),0%
O=C(CSC1=Nc2ccccc2C2=NC(c3ccccc3)C(=O)N12)NCC1CCCO1 (stereo unspecified),32µM*
COc1ccc(NC(=O)CN2CCC(n3c(C)nc4cc(F)ccc43)CC2)c(OC)c1,1%
CCn1c(SCC(=O)c2ccc(Cl)cc2)nnc1-c1ccoc1C,-20%
COc1cc(C(=O)NCCc2cn3ccccc3n2)cc(OC)c1OC,7%
CCCCNC(=O)NCC(=O)Nc1ccc(F)c(F)c1,-4%
COc1cc(C(=O)Nc2nccs2)ccc1OCc1c(C)noc1C,1%
COC(=O)CC1SCCNC1=O (stereo unspecified),-2%
COc1ccc(Oc2ncc3nc(-c4cccc(C#N)c4)c(=O)n(C)c3n2)cc1,-9%
CC1=CC(=O)OC1Cc1ccncc1 (stereo unspecified),1%
CCOC(=O)C1CCN(CC(O)COc2ccc(C(=O)CC)cc2)CC1 (stereo unspecified),0%
CCCn1c(SCC(N)=O)nnc1C(C)C,15%
COC(=O)[C@@]1(Cc2ccc(OC)cc2)[C@H]2c3cc(C(=O)N(C)C)n(Cc4ccsc4Br)c3C[C@H]2CN1C(=O)c1ccccc1,6%
Cc1sc2nc(SCC(=O)NCc3ccco3)n(CCc3ccccc3)c(=O)c2c1C,-11%
Cc1ccccc1NC(=O)c1c(-c2ccccc2)noc1C,5%
CC1(C)OC2C(CO)OC(n3cnc4c(=O)[nH]c(N)nc43)C2O1 (stereo unspecified),-10%
CCc1ccc(N(CC(=O)Nc2ccc(OC)cc2OC)S(C)(=O)=O)cc1,-4%
COc1ccc(N2CCN(C(=O)CN3C(=O)c4ccccc4S3(=O)=O)CC2)cc1,1%
COc1ncc2nc(-c3ccc(F)cc3)c(=O)n(Cc3cccs3)c2n1,32µM*
COc1cccc(-c2nc(=S)c3c(n2CCCO)CCCC3)c1,1%
CC1CCN(S(=O)(=O)c2ccc3c(c2)oc(=O)n3CC(=O)N2c3ccccc3CC2C)CC1 (stereo unspecified),4%
O=C(c1cc2ccccc2oc1=O)N1CCN(Cc2ccc3c(c2)OCO3)CC1,?
CCCCC(=O)Nc1ccc(NC(=O)CC)cc1OC,1%
Cn1c(NCc2cccc(Br)c2)nc2ccccc21,-11%
COCCNC(=O)COC(=O)c1nsc(Cl)c1Cl,6%
COC(=O)c1ccccc1CCC(C)=O,-10%
[O-][n+]1c(CN2CCCCC2)nc2cccc3c2c1-c1ccccc1-3,-5%[11.4 µM]
COc1ccccc1NC(=O)CSC1=NC(=O)C(NC(C)=O)C(=O)N1 (stereo unspecified),-7%
Cc1nc(SCC(=O)Nn2c(-c3ccccc3)nc3ccccc3c2=O)n[nH]1,-9%
CCC(C(=O)NC1CCCC1)N(C(=O)Cn1nnc(-c2ccc(OC)c(OC)c2)n1)C1CCCCC1 (stereo unspecified),-6%
O=C(NC1(C(F)(F)F)NC(=O)N(Cc2ccco2)C1=O)c1cccs1 (stereo unspecified),6%
O=C(Cn1c(NCCCO)nc2ccccc21)c1cccs1,2%
NC(=O)NOC[C@@H]1NC(=O)NC1=O,8%[11.4 µM]
CCOc1ccc(C(=O)Nc2cccc(C)n2)cc1,-8%
CC1Cn2c(nnc2C23CC4CC(CC(C4)C2)C3)S1 (stereo unspecified),5%
N#CC1=C2SCN(Cc3ccccc3)CN2C(=O)CC1c1cccs1 (stereo unspecified),?
COc1ccc(C(=O)C2CCN(C(=O)c3ccco3)CC2)cc1,1%
COc1ccccc1S(=O)(=O)Cc1ccc(C(=O)NCc2cccnc2)o1,6%
CC(=O)c1cccc(NC(=O)C2CCN(S(=O)(=O)c3c(C)n[nH]c3C)CC2)c1,-7%
Cc1cc(NC(=O)CSc2nnc(C3CC3)n2C)no1,6%
CC1=C(C(=O)OC(C)C)C(/C=C/c2ccccc2)NC(=O)N1 (stereo unspecified),5%
CS(=O)(=O)N1CCC(C(=O)NCC2CCCO2)CC1 (stereo unspecified),16%
O=C(NCCCN1CCOCC1)c1coc2ccccc2c1=O,1%
CC(=NCC1CCCO1)C1=C(O)CC(C)(C)CC1=O (stereo unspecified),6%
Cc1ccc(C2C(C(=O)c3cc4ccccc4o3)=C(O)C(=O)N2CCN2CCOCC2)o1 (stereo unspecified),-29%
O=c1c2cc(Cl)ccc2nc2ccc(N3CCCC3)nn12,?
Cc1nc2cc(NC(=O)NCc3ccco3)ccc2o1,3%

# Continuation:
canonical_smiles,HSD17B inh
CCc1cc(C(=O)Cc2cnn(-c3ccccc3)c2)c(O)cc1O,32µM*
CC1(C)C(c2cccs2)=NC(c2ccccc2)N1O (stereo unspecified),10%
CCNC(=O)NC(=O)C(C)OC(=O)c1cccnc1SC (stereo unspecified),6%
OC[C@H]1O[C@@H](n2cnc3cncnc32)[C@H](O)[C@@H]1O,0%
COc1cccc(C(=O)Nc2cccc(NC(C)=O)c2)c1,-3%
O=C(NCC1CCCO1)[C@@H]1CSC2c3ccccc3C(=O)N21 (stereo partly specified),8%
CC1=C(CCC(=O)O)c2cc3nc(cc4[nH]c(cc5[nH]c(cc1n2)c(C)c5C(C)O)c(C)c4C(C)O)C(C)=C3CCC(=O)O (stereo unspecified),25µM*
O=C(c1nc2nc(-c3ccccc3)cc(C(F)(F)F)n2n1)N1CCOCC1,?
Cc1ccc(CNC(=O)CSc2nc3ccccc3c(=O)n2CCCO)cc1,7%
COc1ccc(CCNC(=O)Cc2cc(=O)[nH]c(=O)[nH]2)cc1OC,2%
Cc1cc(NC(=O)CSc2nnc(C)c(=O)[nH]2)no1,1%
O=C(CC1CCCC1)OCn1nnc2ccccc2c1=O,-3%
COc1cccc(CNC(=O)C2CCN(S(=O)(=O)c3c(C)nn(C)c3C)CC2)c1,-2%
Cn1c(=O)cnc2cnc(Nc3ccccc3)nc21,0%
O=c1[nH]c(N2CCOCC2)nc2ncn(Cc3ccccc3)c12,-5%
C=CCNc1nc(NCCN2CCOCC2)nc(OC)n1,-3%
COc1ccc2nc3oc(C(=O)N4CCN(c5cccc(C(F)(F)F)c5)CC4)cc3cc2c1,?
O=C(c1ccc(F)cc1)C1CCN(CCCCc2ccccc2)CC1,-10%
COC(=O)c1ccccc1NC(=O)CS(=O)(=O)Cc1nc(-c2ccc(C)cc2)oc1C,?
CC(C)(C)SCCNC(=O)c1ccc(NS(C)(=O)=O)cc1,2%
COc1ccc(CNC(=O)c2cc(-n3cnnc3)ccc2Cl)cc1,7%
COc1ccccc1N1CCN(C(=O)c2cc(-c3ccc(C)cc3)on2)CC1,-17%
CSc1nnc(-c2nnc(SC)n2-c2ccccc2)n1-c1ccccc1,6%
NCCCCN=C(N)N,-2%&-2%&-4%
CC(O)CN1C(=O)C(CC(=O)Nc2ccc(Cl)cc2)SC1=Nc1ccccc1 (stereo unspecified),-19%
CC1CCC(C(=O)O)NC1c1cccc(N2CCCC2=O)c1 (stereo unspecified),3%[11.4 µM]
CC(C)CCn1cnc2c1c(=O)n(C)c(=O)n2C,8%
Cc1ccccc1-c1ccc(Nc2ccc(C(=O)N3CCOCC3)cc2)nn1,3%

# The list is partial (hit frequency here may not be typical).
